# High-throughput results as filed in PubChem BioAssay.
# nsP2pro primary: Primary qHTS for inhibitors of NSP2Pro chikungunya virus (CHIKV); Polyprotein P1234 (Chikungunya virus (strain S27-African prototype)), Q8JUX6; FRET peptide cleavage, nsP2pro, fluorescence 1 h; Potency, µM (highest dose often 24.9 µM), for the others: at the highest dose activity change, negative = inhibition, usual class: inhibitors; 1.1% of 31,000 active; AID 1964107, 2024; active means well fitted inhibition curve with a large enough effect; inconclusive means small, poorly fitted or top-dose-only effect; inactive means no such curve, though single readings can be large or run the other way; also: nearly all actives have a fitted effect of over 60% in size; a reference inhibitor and vehicle were the controls
# Target sequence (Q8JUX6 whole entry, looked up): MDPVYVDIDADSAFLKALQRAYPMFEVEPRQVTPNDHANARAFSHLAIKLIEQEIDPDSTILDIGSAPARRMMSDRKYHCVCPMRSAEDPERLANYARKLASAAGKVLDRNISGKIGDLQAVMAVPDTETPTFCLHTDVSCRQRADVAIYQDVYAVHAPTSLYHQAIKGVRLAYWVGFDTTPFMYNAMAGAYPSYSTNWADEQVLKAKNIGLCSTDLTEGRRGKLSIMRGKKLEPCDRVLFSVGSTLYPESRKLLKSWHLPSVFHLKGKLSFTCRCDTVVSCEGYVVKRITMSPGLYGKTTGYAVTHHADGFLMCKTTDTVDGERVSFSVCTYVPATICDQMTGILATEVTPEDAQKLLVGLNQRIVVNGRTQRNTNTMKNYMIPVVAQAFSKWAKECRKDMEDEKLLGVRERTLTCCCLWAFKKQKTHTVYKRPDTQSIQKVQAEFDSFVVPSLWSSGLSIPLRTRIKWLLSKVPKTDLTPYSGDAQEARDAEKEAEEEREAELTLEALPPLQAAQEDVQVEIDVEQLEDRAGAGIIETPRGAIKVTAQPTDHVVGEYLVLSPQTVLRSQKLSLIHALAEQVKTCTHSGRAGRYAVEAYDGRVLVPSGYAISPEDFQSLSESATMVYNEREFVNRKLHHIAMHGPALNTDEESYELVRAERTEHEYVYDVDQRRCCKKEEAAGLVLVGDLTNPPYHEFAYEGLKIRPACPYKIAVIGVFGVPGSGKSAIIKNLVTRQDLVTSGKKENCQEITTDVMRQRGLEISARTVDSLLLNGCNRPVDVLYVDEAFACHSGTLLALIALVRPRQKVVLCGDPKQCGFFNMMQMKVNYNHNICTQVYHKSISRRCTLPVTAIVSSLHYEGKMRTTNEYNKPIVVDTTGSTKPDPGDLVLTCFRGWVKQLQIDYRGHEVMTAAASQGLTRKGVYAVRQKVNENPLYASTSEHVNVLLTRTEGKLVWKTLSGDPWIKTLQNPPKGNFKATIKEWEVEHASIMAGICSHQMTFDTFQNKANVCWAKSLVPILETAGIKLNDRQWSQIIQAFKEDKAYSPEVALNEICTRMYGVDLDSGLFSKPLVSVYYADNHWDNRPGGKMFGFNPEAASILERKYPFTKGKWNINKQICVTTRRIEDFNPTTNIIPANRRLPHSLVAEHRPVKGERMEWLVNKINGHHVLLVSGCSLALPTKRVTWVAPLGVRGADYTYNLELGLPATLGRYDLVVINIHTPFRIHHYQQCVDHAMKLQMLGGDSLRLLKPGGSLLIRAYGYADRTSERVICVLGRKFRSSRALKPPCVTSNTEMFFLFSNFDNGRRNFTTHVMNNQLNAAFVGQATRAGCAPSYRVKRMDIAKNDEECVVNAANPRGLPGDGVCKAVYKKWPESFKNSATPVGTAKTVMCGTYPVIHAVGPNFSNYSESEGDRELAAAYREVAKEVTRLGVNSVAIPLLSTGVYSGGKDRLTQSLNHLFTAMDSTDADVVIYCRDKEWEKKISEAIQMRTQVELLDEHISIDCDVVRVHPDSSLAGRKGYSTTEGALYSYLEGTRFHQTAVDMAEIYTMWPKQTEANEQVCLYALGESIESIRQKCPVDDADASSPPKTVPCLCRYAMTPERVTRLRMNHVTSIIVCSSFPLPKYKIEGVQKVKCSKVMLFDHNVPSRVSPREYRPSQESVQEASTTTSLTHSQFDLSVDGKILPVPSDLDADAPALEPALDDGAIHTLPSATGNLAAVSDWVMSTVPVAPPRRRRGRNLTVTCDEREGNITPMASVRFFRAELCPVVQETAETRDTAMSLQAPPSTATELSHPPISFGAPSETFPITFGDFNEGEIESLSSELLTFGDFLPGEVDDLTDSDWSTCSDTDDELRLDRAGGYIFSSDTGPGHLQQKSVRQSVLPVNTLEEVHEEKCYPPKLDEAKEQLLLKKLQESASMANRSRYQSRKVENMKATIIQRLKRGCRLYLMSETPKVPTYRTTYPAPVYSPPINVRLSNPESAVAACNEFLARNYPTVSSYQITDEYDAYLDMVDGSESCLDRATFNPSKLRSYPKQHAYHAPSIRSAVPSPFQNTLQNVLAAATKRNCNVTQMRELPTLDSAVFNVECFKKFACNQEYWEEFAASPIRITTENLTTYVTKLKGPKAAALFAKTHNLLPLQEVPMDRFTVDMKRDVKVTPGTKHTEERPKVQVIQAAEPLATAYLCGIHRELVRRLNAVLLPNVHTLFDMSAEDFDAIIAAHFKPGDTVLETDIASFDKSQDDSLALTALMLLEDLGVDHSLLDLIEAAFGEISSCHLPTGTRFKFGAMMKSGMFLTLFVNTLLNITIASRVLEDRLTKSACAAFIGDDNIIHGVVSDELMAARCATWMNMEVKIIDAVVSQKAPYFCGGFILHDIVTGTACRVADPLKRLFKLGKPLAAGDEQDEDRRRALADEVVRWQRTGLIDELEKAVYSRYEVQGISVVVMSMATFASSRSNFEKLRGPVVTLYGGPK
# Active calls of the source: *; i = inactive; ? = inconclusive; & = joins results of further samples; [ ] = another dose, or the depositor's remark. % is scaled to controls: 0 for no effect and ±100 for the full control effect; potency is read from the fitted curve at half-maximal effect. The list is partial; count on the stated rates, not on these rows.
SMILES	nsP2pro primary
COC12CC3C(C(C)C1=CC(=O)O2)C(O)C(OC(C)=O)C1C(C)(C)C(OC(C)=O)CCC31C (stereo unspecified)	?
S=P(c1ccccc1)(c1ccccc1)c1c[n+](Cc2ccccc2)c2ccccn12	-0.7%
CC1=C(C(N)=O)C(c2ccc(C(C)C)cc2)n2nc(SCc3ccccc3)nc2N1 (stereo unspecified)	-24.6%
CCCCNC(=O)c1cnc2c(-c3ccc(OCC)c(OCC)c3)c(C)nn2c1-c1ccccc1	-9.6%
C[C@@H](CN1CCC2(CC1)C(=O)NCN2c1cccc(F)c1)NC(=O)c1ccc(Br)cc1	19.0%
COc1ccc(Nc2ncc3c(n2)CCN(C(=O)OC(C)(C)C)C3)cc1	-14.8%
[N-]=[N+]=N[C@]1(CO)O[C@@H](n2ccc(=O)[nH]c2=O)[C@@H](O)[C@@H]1O	-15.6%
COc1ccc(C)cc1NC(=O)N1CCCC1c1nncn1C1CCCC1 (stereo unspecified)	-7.2%
CCn1c2c(c(=O)n1-c1ccccc1)CCN(Cc1ncccn1)C2	-22.9%[39.2 µM]
CCC/C=C1\OC(=O)C2=C1CCC(O)C2O (stereo unspecified)	3.1%
C/C=C1\[C@H](OC2OC(COC3OC(CO)C(O)C(O)C3O)C(O)C(O)C2O)OC=C(C(=O)OC)[C@H]1CC(=O)OCCc1ccc(O)cc1 (stereo partly specified)	1.5%[10 µM]
CN(Cc1cnn(C)c1)C(=O)c1csc2nc(-c3cccc(C(F)(F)F)c3)cn12	i
CC(=O)OCC1=CCC2C(C)(C)CCCC2(C)C12CCC(C)(CC(=O)O)O2 (stereo unspecified)	?
CC1=C(C#N)C(NC(=O)c2ccccc2Cl)(C(F)(F)F)C(=O)N1 (stereo unspecified)	-5.6%
CC(=O)Nc1ccc(Cl)cc1C(=O)c1ccc[nH]1	-5.9%
O=C(c1ccc(F)cc1)N1CCCC(C(=O)N2CCC(c3nc4ncccc4[nH]3)CC2)C1 (stereo unspecified)	-13.5%
O=C1CCC(C(=O)O)N1 (stereo unspecified)	7.8%
CCCN1C(=O)c2[nH]nc(-c3cccc(OC)c3)c2C1c1ccccn1 (stereo unspecified)	-12.7%
O=C(COc1ccccc1)Nc1nnc(SCc2cc(=O)n3cc(Cl)ccc3n2)s1	-13.3%
Cc1ccc(S(=O)(=O)Nc2cnccc2C(=O)Nc2ccc3ccccc3c2)cc1	i
CC1(C)CC[C@]2(C(=O)O)CC[C@]3(C)C(=CCC4[C@@]5(C)C[C@@H](O)[C@H](O)[C@@](C)(CO)C5CC[C@]43C)C2C1 (stereo partly specified)	-5.8%[10 µM]
CN1CCCC2(CCN(S(=O)(=O)c3ccc4[nH]c(=O)[nH]c4c3)C2)C1=O (stereo unspecified)	-3.1%
C[C@H]1CC(=O)C2=C(C1)C(O)C(O)[C@@]1(O)[C@H]2C(=O)c2cccc(O)c2[C@@H]1O (stereo partly specified)	?
CCN(CC)CCNC(=O)Cn1ncc2c3ccccc3n(Cc3ccccc3C)c2c1=O	18.8%
CCOCCCn1c(=N)c(C(=O)NC(C)c2ccccc2)cc2c(=O)n3cc(C)ccc3nc21 (stereo unspecified)	-11.6%
Cn1nc(-c2ccccc2F)c2cc(C(=O)NCc3ccc(Cl)cc3)sc21	-4.4%
C[C@H]1O[C@@H](O[C@H]2[C@@H](O)C[C@H](O[C@H]3[C@@H](O)C[C@H](O[C@H]4CC[C@@]5(C)[C@H](CC[C@@H]6[C@@H]5C[C@@H](O)[C@]5(C)[C@@H](C7=CC(=O)OC7)CC[C@]65O)C4)O[C@@H]3C)O[C@@H]2C)C[C@H](O)[C@@H]1O	-3.5%&2.0%
COc1ccccc1CNC(=O)C[C@@H]1c2nc(-c3cccnc3)sc2C[C@@H]2[C@](C)(CO)[C@H](O)CC[C@]21C	3.6%
NC(=O)COc1cccc(CN2CCN(c3ccc(F)cc3F)CC2)c1	-3.6%
CC[C@H](C)/C=C(C)/C=C/C1=CC2=C(Cl)C(=O)[C@](C)(O)[C@H](OC(C)=O)[C@H]2CO1	?
Oc1ccc(/C=C/c2nc(-c3ccccc3O)n(-c3ccccc3)n2)c(O)c1	-0.2%
C[C@]12CCC[C@](C)(C(=O)O)C1CCC13CC(CO)C(CCC12)C3 (stereo partly specified)	-26.5%
Cc1ccc(NC(=O)c2ccc(C)c(S(=O)(=O)N3CCCCCC3)c2)cc1	-15.7%
CCOCC(O)COc1ccc(NC(=O)CC[S+](C)C)cc1 (stereo unspecified)	-1.8%
NCC(O)c1ccc(O)cc1 (stereo unspecified)	?
COc1ccc(C)cc1NC(=O)N(Cc1ccc2c(c1)OCO2)C1CCN(Cc2ccccc2)CC1	0.0%
COc1cc(NC(=O)C(OC(=O)CNC(=O)c2ccccc2)c2ccccc2)c(OC)cc1Cl (stereo unspecified)	-0.1%
c1cnc(N2CCOCC2)c(OC2CCNC2)n1 (stereo unspecified)	-5.2%
CCN(CC)C(=O)c1ccc2c(c1)ncn2-c1cccc(C)c1	-5.7%
COCc1ccc2c(c1)c(OC(C)(C)C(=O)N1CCN(C)CC1)nn2Cc1ccccc1	1.5%[39.2 µM]
COc1cc(NC(=O)NCCc2c(C)nn(C)c2C)cc(OC)c1OC	-8.0%
C=C(C(=O)OC)[C@@H]1CC=C2C=CC(=O)[C@H](C)[C@@]2(C)C1	-21.0%
COc1ccc(CN2C(=O)COC[C@H]2C(=O)Nc2cc(F)cc(F)c2)cc1OC	4.1%
Cc1ccc(NC(=O)CSc2nc3ccc(NC(=O)c4cccc(Cl)c4)cc3s2)c(C)c1	-24.8%
Cc1ccc2oc([C@H]3CCN(C(=O)C4CC4)C3)nc2c1	?
O=C(NCC(F)(F)F)c1ccc2nnc(-c3cncc(Cl)c3)n2c1	-0.2%
CN(C)c1cccc(-c2nnc(N3CCC(C(N)=O)CC3)s2)c1	i
COc1cc(-c2noc(CSc3nc(-c4ccc(F)cc4)cc(=O)[nH]3)n2)cc(OC)c1OC	-20.2%
C=CC1C(OC2OC(CO)C(O)C(O)C2O)OC=C(C(=O)OC)C1CC1CC(=O)CC(CCc2ccc(O)cc2)O1 (stereo unspecified)	7.3%[10 µM]
O=C(Nc1ccc(C(F)(F)F)cn1)N1CCN(c2ncccc2C(F)(F)F)CC1	-10.5%

# (listing goes on)
SMILES	nsP2pro primary
CCc1ccc(CNC(=O)c2cnc3sc(N4CCOCC4)nn3c2=O)cc1	-19.5%
CC(C)N1CCc2c(sc(NC(=O)C3CC3)c2-c2nc3ccccc3s2)C1	i
COc1cccc(NC(=O)O[C@@H]2CO[C@H]3[C@@H]2OC[C@@H]3Nc2nccc(-c3ccccc3)n2)c1	i
COCC(=O)N[C@H]1C[C@H]2C(=O)NC[C@@H](CCC(=O)N3CCN(c4ccccn4)CC3)N2C1	-2.7%
CC1Cc2ccccc2N1S(=O)(=O)c1nnc(NC(=O)c2cccc(F)c2)s1 (stereo unspecified)	18.4%
O=C(O)Cc1nn(Cc2nc3cc(C(F)(F)F)ccc3s2)c(=O)c2nccnc12	-8.7%
COC(=O)c1cc(CN2CCN(C(=N)N)CC2)cc(C(=O)N2CCN(C(=O)c3ccc(C(=N)N)cc3)CC2)c1	?
CCOc1ccc(CNC(=O)c2cnc3c(C)cccn3c2=O)cc1	-14.8%
COc1ccc(CCNCc2ccc(OCc3ccc(Cl)nc3)c(OC)c2)cc1OC	?
COc1ccc(C2Nc3ccccc3C(=O)N2Cc2ccc(C(F)(F)F)cc2)cc1COc1ccc(NC(C)=O)cc1 (stereo unspecified)	-14.2%

# Brought forward from above: 4 compounds, then new ones.
SMILES	nsP2pro primary
COC(=O)c1cc(CN2CCN(C(=N)N)CC2)cc(C(=O)N2CCN(C(=O)c3ccc(C(=N)N)cc3)CC2)c1	?
CCOc1ccc(CNC(=O)c2cnc3c(C)cccn3c2=O)cc1	-14.8%
COc1ccc(CCNCc2ccc(OCc3ccc(Cl)nc3)c(OC)c2)cc1OC	?
COc1ccc(C2Nc3ccccc3C(=O)N2Cc2ccc(C(F)(F)F)cc2)cc1COc1ccc(NC(C)=O)cc1 (stereo unspecified)	-14.2%
Cc1cc(CN2CCc3nc(C(C)C)nc(-c4ccc(Cl)cc4)c3CC2)no1	-2.0%
COc1ccccc1N1CCN(c2ncc3c(n2)CCN(Cc2ccccc2C)C3)CC1	-8.4%
COc1ccc(Cc2nnc3ccc(C(=O)N4CCN(Cc5ccccc5)CC4)cn23)cc1	-8.9%
CCN1CCC(N(Cc2ccc(F)cc2)C(=O)Nc2cc(Cl)ccc2C(=O)OC)CC1	34.7%[activator]
COc1ccc(CNC(=O)C2CN(S(=O)(=O)C3CC3)CC23CCCCC3)cc1 (stereo unspecified)	-1.8%
O=C(Nc1c(C(=O)N2CCN(c3ccccc3F)CC2)oc2ccccc12)c1ccccc1F	-10.7%
O=C(CC1CCCC1)N1CC(c2nc(CCOCc3ccccc3)no2)C1	3.6%
Cc1cccc(C)c1OCC(=O)NC(Cc1ccccc1)C(O)CC(Cc1ccccc1)NC(=O)C(C(C)C)N1CCCNC1=O (stereo unspecified)	-1.0%
COc1ccc(S(=O)(=O)N2CCN(Cc3ccc4c(c3)OCO4)CC2)cc1C	-21.7%
CC12CCC(CC1=O)C2(C)C (stereo unspecified)	-10.6%

# A section of the results above, as a working copy:
SMILES	nsP2pro primary
O=C(CC1CCCC1)N1CC(c2nc(CCOCc3ccccc3)no2)C1	3.6%
Cc1cccc(C)c1OCC(=O)NC(Cc1ccccc1)C(O)CC(Cc1ccccc1)NC(=O)C(C(C)C)N1CCCNC1=O (stereo unspecified)	-1.0%
COc1ccc(S(=O)(=O)N2CCN(Cc3ccc4c(c3)OCO4)CC2)cc1C	-21.7%
CC12CCC(CC1=O)C2(C)C (stereo unspecified)	-10.6%

# Going on with the list.
SMILES	nsP2pro primary
Cc1ccc(NC(=O)C(=O)NCC(c2cccnc2)N2CCN(C)CC2)cc1F (stereo unspecified)	-15.9%
CCC1(C(=O)Nc2cc(OC)ccc2OC)CCCCC(=O)N1 (stereo unspecified)	4.6%
COc1ccc(C(=O)N2CCn3nc(C(O)CS(C)(=O)=O)cc3C2)cn1 (stereo unspecified)	4.1%
COc1ccc(Cn2ccc3nc(C)c(C(=O)NCc4ccc(C)cc4)cc3c2=O)cc1	-6.9%
COC(=O)c1cc2occc2n1Cc1nc(-c2ccc(Cl)cc2)oc1C	-19.0%
COc1ccc(/C=C\c2onc(C)c2S(=O)(=O)N2CCC(C(=O)Nc3ccc(C)cc3C)CC2)cc1	-13.0%
O=C(NC1CC(=O)N(c2ccc(F)cc2)C1)C1CC1 (stereo unspecified)	-13.5%
C=CCn1cc(CN2CCOC(Cc3cccc4ccccc34)C2)c(C)n1 (stereo unspecified)	i
COc1cc(/C=C/C(=O)OC[C@H]2O[C@H](O[C@]3(CO)O[C@H](CO)[C@@H](O)[C@@H]3O)[C@H](O)[C@@H](O)[C@@H]2O)cc(OC)c1O	-6.2%[10 µM]
O=C(N[C@H]1CCN2C(=O)[C@@H](Cc3c[nH]c4ccccc34)NC(=O)[C@H]12)c1cnccn1	2.6%[39.2 µM]
COc1ccc(-n2c(-c3ccc(F)cc3)cn3c4c(=O)n(C)c(=O)n(C)c4nc23)cc1	-12.9%
COc1ccc(OC2=NS(=O)(=O)c3ccccc32)cc1	-7.3%
O=C(c1ccccc1)c1ccc2nc(NC(=O)c3csc(C4CCN(c5ncnc6ccsc56)CC4)n3)[nH]c2c1	2.5%
O=C(c1ccccc1)n1nc(-c2ccco2)nc1NCc1cccs1	?
O=C(CN1C(=O)COc2ccc(S(=O)(=O)N3CCCCC3)cc21)NCc1ccc(F)cc1	2.8%
Cc1ccccc1OCCn1c(=N)n(C(C)C)c2ccccc21	-8.3%
COCC1(C(=O)N2C[C@@H](C(=O)O)[C@H](c3ccccc3OC)C2)CCC1	-1.7%
O=C(C[C@@H]1C[C@H]2O[C@H](CNC3Cc4ccccc4C3)[C@@H](O)[C@H]2O1)N1CCC(F)(F)C1	-4.1%[39.2 µM]
COc1ccc(CNC(=O)C2CCN(S(=O)(=O)c3ccc(F)cc3)CC2)cc1	-17.7%
CO[C@H]1[C@H](O)[C@H](O[C@H]2CC[C@]3(C=O)C4CC[C@]5(C)[C@H](C6=CC(=O)OC6)CC[C@]5(O)C4CC[C@@H]3C2)O[C@@H](C)[C@@H]1O (stereo partly specified)	9.4%[10 µM]
Oc1cccc2cc(NCc3ccccc3F)cnc12	i
COc1ccc(NC(=O)CCCc2nnc3n(CCC(C)C)c(=O)c4sccc4n23)c(OC)c1	-17.6%
Cc1nnc(N2CCC3(CCC(=O)N(CCCN(C)C)C3)CC2)c2ccccc12	i
COc1ccc(-c2noc(N3CCN(c4cccc(Cl)c4)CC3)n2)cc1OC	-12.1%
Cc1ccc(Sc2cncc3sc(C(N)=O)cc23)cc1	-1.1%
CC(=O)N1c2ccccc2CC1C(=O)N1CCN(c2cc(Cl)ccc2C)CC1 (stereo unspecified)	-28.3%
COc1ccc(-n2c(Cc3ccccc3)nnc2SCc2nc(-c3ccccc3C)no2)cc1	-15.9%
CO[C@H]1[C@@H](O)[C@@H](C)O[C@@H](O[C@@H]2C=C3C(OC(C)=O)CC4(O)C(CC[C@]5(C)[C@@H](C6=CC(=O)OC6)CC[C@]45O)[C@@]3(C)CC2)[C@@H]1O (stereo partly specified)	17.4%[10 µM]
O=C(/C=C\n1cnc(-c2cc(C(F)(F)F)cc(C(F)(F)F)c2)n1)N1CC(F)(F)C1	?
Cc1noc(-c2ccc(N3CCCCC3C)c([N+](=O)[O-])c2)n1 (stereo unspecified)	-23.8%
